# Bioassay records deposited in PubChem by several laboratories.
# HIV Env fusion – HIV envelope-mediated fusion inhibition | HeLa-JRFL Env/CEM21 cell fusion, luciferase | inhibition, % at 12.3 µM | 360,000 compounds, 1.1% hits;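 active = mean replicate inhibition score of at least 50 and every replicate individually at or above 50; inconclusive = only one of the two criteria met; inactive = mean below 50 and not all replicates reaching 50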;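 note: 0% = plate neutral controls and 100% = maraviroc near 300 nM; one replicate is shown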
# Rce1 inh – yeast Ras-converting enzyme inhibition; Q03530; yeast membranes, quenched prenylated peptide cleavage fluorescence; calls only; 290,000 compounds, 0.27% hits; AID 2563;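 active = fall in fluorescence gain of 50% or more versus controls, with final raw signal at or below 3038400; inconclusive = same 50% fall but final raw signal above 3038400; inactive = fall in fluorescence gain under 50%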;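 note: plate controls were neutral control wells for no effect and wells lacking membranes for full effect; tested at 10 µM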
# Target sequence (Q03530 whole entry, looked up): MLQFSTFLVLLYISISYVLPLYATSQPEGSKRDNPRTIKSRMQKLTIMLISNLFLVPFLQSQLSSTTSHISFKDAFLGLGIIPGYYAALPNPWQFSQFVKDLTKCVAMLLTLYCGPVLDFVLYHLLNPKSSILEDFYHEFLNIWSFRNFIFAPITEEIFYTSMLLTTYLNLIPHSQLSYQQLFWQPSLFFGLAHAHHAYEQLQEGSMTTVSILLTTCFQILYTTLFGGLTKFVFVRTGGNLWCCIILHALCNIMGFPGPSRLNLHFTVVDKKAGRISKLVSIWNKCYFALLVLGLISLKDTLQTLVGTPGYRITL
# PABP polyA inh – PABP-poly(A) binding inhibition; PABP-poly(A) RNA binding, fluorescence polarization; inhibition, % at 35 µM; 290,000 compounds, 1% hits; P11940;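 active = 50% or more with normal probe brightness, or confirmed in later tests; inconclusive = above 50% with abnormal brightness, or retests that disagree; inactive = below 50% or failed in later tests; about a fifth of its hits are not listed in these tables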;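 note: calls also rest on retests at 20 µM and on dose response follow-up; controls were probe without protein and protein plus probe with vehicle; some compounds called inactive have numbers as strong as hits; many hits fall short of the cut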
# eIF4H FP inh – inhibitors of RNA binding by human eIF4H; Q15056; eIF4H fluorescence polarization binding assay; inhibition, % at 35 µM; 290,000 compounds, 0.94% hits; AID 2012;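 active = 50% or more with normal probe brightness, or confirmed in later tests; inconclusive = above 50% with abnormal brightness, or retests that disagree; inactive = below 50% or failed in later tests; about a fifth of its hits are not listed in these tables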;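 note: calls also rest on retests at 20 µM and on dose response follow-up; 0% = protein and probe with vehicle and 100% = probe without protein; strong numbers were not always called active; many hits fall short of the cut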
# MT1-MMP act inh – inhibitors of human MT1-MMP activation | AID 651647 | 360,000 compounds, 0.061% hits | HT1080 RFP-PRO-GFP cells, GFP/RFP ratio fluorescence, overnight; percent of plate control window, DMSO zero | GFP/RFP ratio change, % at 20 µM | P50281;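 active = GFP/RFP ratio change of at least 30% with cell ATP level not reduced by more than half and red fluorescence within 50% of control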; note: strong numbers were not always called active
#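 Assay system – RFP-PRO-GFP reporter HT1080 cells · Compound dosing – single dose of 20 µM compound, 1% DMSO final · Incubation – overnight compound exposure at 37 °C · Measure – GFP/RFP fluorescence ratio · Benchmarks – DMSO wells and RFP-L50D-GFP cells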
# UUG fidelity – alters start codon recognition fidelity in yeast; S. cerevisiae UUG-firefly luciferase reporter, luminescence/redox ratio; activity score, % at 18.7 µM; 350,000 compounds, 0.13% hits;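 active = replicate mean at a twofold rise or more, about +100% in these data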;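 note: firefly luciferase made from a UUG start codon reports start codon fidelity; reporter light over untreated wells divided by growth signal over untreated wells; some hits fall short of that in this replicate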
# CSC inhib – blocks cancer stem cells; AID 2717; 300,000 compounds, 1.1% hits; cancer stem cell-like cells viability, luminescence; inhibition, % at 7.5 µM;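 active = mean at 75% or more and at least half the replicates too; inconclusive = mean and replicates disagree; tested in HMLE shEcad cells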;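 note: 0% = median of negative and 100% = median of positive control wells; the first replicate is given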
# MT1-MMP act inh RFP – also measured in MT1-MMP act inh; calls as there; RFP signal change, %; measured here: RFP expression control read;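 0 = vehicle wells; hits needed this value within 50% of zero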
# * hit, by the source's call; i = inactive; ? = inconclusive; nt = no result given; & = joins results of further samples.
molecule	HIV Env fusion	Rce1 inh	PABP polyA inh	eIF4H FP inh	MT1-MMP act inh	MT1-MMP act inh RFP	UUG fidelity	CSC inhib
Cc1cc(C)cc(C(=O)Nc2cc3c4c(c2)CC(=O)N4CCC3)c1	-7	i	nt	nt	0	2	-16	2
COC(=O)C1CN(C(=O)C(C)Oc2ccccc2F)c2ccccc2O1 (stereo not given)	3	i	0	-4	-3	1	-17	-13
CCC(=O)c1ccc(Oc2nc3c(c(=O)n(C)c(=O)n3C)n2CC)cc1	30	i	8	12	-2	-10	-2	-16
O=C(OCC#CCSc1nnc(-c2cccc3ccccc23)o1)c1ccc(Cl)cc1	-45	nt	nt	nt	15	6	-9	nt
O=C(C[C@H]1C/C=C/CC[C@H](Cc2ccc(F)cc2)C(=O)O[C@H](c2ccccc2)CNC1=O)NCCO	?	nt	nt	nt	-3	-1	18	-7
Cn1c(=O)c2cc(NC(=S)NC3CCCCC3)ccc2n1Cc1cccc(C(F)(F)F)c1	23	nt	nt	nt	-3	-10	-18	nt
COn1c(=O)c(=O)n(O)c2ccccc21	nt	i	7	4	0	1	nt	5
CCOC(=O)C(Cc1ccnnc1)=NO	-58	nt	nt	nt	0	0	-7	nt
Cc1cn(CCC(=O)Nc2ccc(N3CCOCC3)cc2)c2ccccc12	-24	i	4	-17	-3	-1	2	20
CC(C)n1c(NCCO)nc2ccccc21	-2	nt	-2	-1	3	3	nt	-4
Cc1ccc(CNC(=O)CCCc2ccccc2)cc1	-22	i	6	-3	0	-2	nt	-3
O=C(NCc1ccccc1Cl)C1CCN(S(=O)(=O)c2ccc(F)cc2)CC1	-18	i	5	1	-1	1	nt	5
C=CCN1C(=O)C(C)NC1=S (stereo not given)	-8	i	0	0	-1	6	nt	nt
CCC1(C)Cc2nc3[nH]c(=S)n(-c4ccc(C)cc4)c(=O)c3cc2CO1 (stereo not given)	4	i	-24	-5	-2	1	nt	-14
CCCOC(=O)c1ccc(OCC(O)CN2C(=O)NC(C)(C)C2=O)cc1 (stereo not given)	2	i	-7	5	-3	-6	-17	-7

# Continued, starting with the last two of the part before.
molecule	HIV Env fusion	Rce1 inh	PABP polyA inh	eIF4H FP inh	MT1-MMP act inh	MT1-MMP act inh RFP	UUG fidelity	CSC inhib
CCC1(C)Cc2nc3[nH]c(=S)n(-c4ccc(C)cc4)c(=O)c3cc2CO1 (stereo not given)	4	i	-24	-5	-2	1	nt	-14
CCCOC(=O)c1ccc(OCC(O)CN2C(=O)NC(C)(C)C2=O)cc1 (stereo not given)	2	i	-7	5	-3	-6	-17	-7
COc1ccc(S(=O)(=O)N2CCCC(C(=O)NCCC3=CCCCC3)C2)cc1 (stereo not given)	nt	i	-3	-18	-20	-24	-26	nt
Cc1c(NC(=O)C(C)OC(=O)c2sc3ccccc3c2Cl)c(=O)n(-c2ccccc2)n1C (stereo not given)	18	i	-5	0	5	2	nt	-17
COc1ccc(S(=O)(=O)N2CC3C4C=CC(C4)C3C2)cc1 (stereo not given)	nt	i	-16	-13	-2	4	-10	-28
COc1ccc2[nH]cc(C(O)CN3CCN(c4ccccc4F)CC3)c2c1 (stereo not given)	8	nt	2	-1	1	0	-1	10
Cc1ccccc1-n1c(SCC(=O)c2c(N)n(C3CC3)c(=O)[nH]c2=O)nnc1N1CCOCC1	-3	nt	nt	nt	-3	5	-12	nt
Cc1ccc(S(=O)(=O)N2CCN(C(=S)NCC3CCCO3)CC2)cc1 (stereo not given)	1	i	nt	nt	-1	1	-26	-14
O=C(NCC1CCCO1)C(C(=O)c1ccc(F)cc1)n1ccccc1=O (stereo not given)	-32	i	1	1	1	4	-9	-3
O=C(OCC1CCC=CO1)C1CCC=CO1 (stereo not given)	-3	nt	nt	nt	-8	0	-4	nt
O=C(C1CCCCN1S(=O)(=O)c1ccccc1[N+](=O)[O-])N1CCCCC1 (stereo not given)	0	i	5	3	-1	1	nt	-15
COc1cccc(C(=O)N2CCN(C(=O)C3CCCO3)CC2)c1 (stereo not given)	3	nt	nt	nt	-2	2	-16	nt
NC(=O)c1ccc(Nc2ccc([N+](=O)[O-])cc2[N+](=O)[O-])cc1	-15	i	-4	-2	-8	-5	nt	0
Cc1cccc(S(=O)(=O)Nc2ccc(C)c3c2OC(C)(C)C3)c1	-217	nt	2	-2	1	1	-3	3
CCOc1ccc(S(=O)(=O)NCCC(=O)NC(C)CCc2ccccc2)cc1 (stereo not given)	30	i	nt	nt	-1	-7	2	0
COC(=O)CSc1ncnc2c1sc1nc(-c3ccco3)c3c(c12)CC(C)(C)OC3	nt	nt	18	35	nt	nt	nt	-1
Cc1cccc(CSC(=N)N)c1	5	i	0	4	-2	0	nt	-11

# Later entries
canonical_smiles | HIV Env fusion | Rce1 inh | PABP polyA inh | eIF4H FP inh | MT1-MMP act inh | MT1-MMP act inh RFP | UUG fidelity | CSC inhib
Cc1ccc(C(=O)c2ccc([N+](=O)[O-])cc2)cc1C | nt | i | -6 | -7 | 3 | -1 | nt | 9
CCOc1ccc(NC(=O)CSc2ncn[nH]2)c([N+](=O)[O-])c1 | -33 | i | 16 | 3 | 6 | 1 | nt | -19
COC(=O)CNC(=O)CSc1ccccn1 | -3 | i | 6 | -4 | -2 | 1 | -16 | -10
CCOc1ccc2c(c1)OC(c1ccc(OC)cc1)(C(F)(F)F)NC2=O (stereo not given) | nt | i | 8 | 5 | 2 | -12 | -1 | 55
O=C(CN1C2CCCC1CC(NC(=O)c1ccccc1)C2)NC1CC1 (stereo not given) | -10 | i | -7 | -9 | 4 | 10 | nt | -21
Cc1noc(C)c1COc1cccc(C(=O)OCC(=O)N2CC(=O)Nc3ccccc32)c1 | -67 | i | -2 | -9 | 5 | -9 | -13 | 54
C[C@H](NC(=O)[C@H](Cc1ccccc1)NC(=O)c1cc2cc(Cl)ccc2n1C)C(=O)O | -11 | i | ? | ? | -12 | 5 | 11 | -3
CSCCC(NC(=O)c1ccccc1Br)C(=O)NCc1ccc(F)cc1 (stereo not given) | -3 | i | -7 | 0 | -3 | -1 | -12 | -7
CC1CC(C)CN(CCCNC(=O)CCNC(=O)Cn2ccc3ccccc3c2=O)C1 (stereo not given) | 11 | i | 7 | -8 | 3 | 8 | -15 | nt
COCCCNC(=O)c1ccc2c(=O)n(C3CCCC3)c(=S)[nH]c2c1 | -44 | i | -8 | -7 | 2 | -3 | -1 | 4
Cc1ccc(C(=O)NCC(=O)OCc2nnc(-c3ccc([N+](=O)[O-])cc3)o2)cc1 | -1 | nt | nt | nt | 0 | 3 | -17 | nt
Cc1cc(-c2ccccc2)[nH]c(=O)c1C#N | -10 | i | -6 | 5 | 2 | 3 | nt | -17
O=C(CCn1nnc2ccccc21)Nc1nnc(Cc2ccc(F)cc2)s1 | -11 | i | -2 | -2 | 5 | -1 | -20 | 2
C[C@H](NC(=O)c1[nH]cnc1C(=O)Nc1ccc(Cl)cc1)c1ccccc1 | 8 | nt | nt | nt | 12 | -3 | 0 | 60
COCCN(CCOC)S(=O)(=O)c1ccc(C(=O)Nc2sc3c(c2C(N)=O)CCCCC3)cc1 | -5 | i | -5 | 12 | 8 | -3 | nt | nt
Cn1c(CCCOc2ccc(Cl)cc2Cl)n[nH]c1=S | -10 | i | -2 | 6 | 5 | 0 | nt | -4

# Reformatted: results already given
# Each structure is followed by: HIV Env fusion | Rce1 inh | PABP polyA inh | eIF4H FP inh | MT1-MMP act inh | MT1-MMP act inh RFP | UUG fidelity | CSC inhib
- O=C(OCC#CCSc1nnc(-c2cccc3ccccc23)o1)c1ccc(Cl)cc1
→ -45 | nt | nt | nt | 15 | 6 | -9 | nt
- O=C(C[C@H]1C/C=C/CC[C@H](Cc2ccc(F)cc2)C(=O)O[C@H](c2ccccc2)CNC1=O)NCCO
→ ? | nt | nt | nt | -3 | -1 | 18 | -7

# Further compounds follow:
canonical_smiles | HIV Env fusion | Rce1 inh | PABP polyA inh | eIF4H FP inh | MT1-MMP act inh | MT1-MMP act inh RFP | UUG fidelity | CSC inhib
O=C(/C=C/c1ccccc1Cl)Nc1ccc(-c2nnc3n2CCCCC3)cc1 | 0 | i | 19 | -3 | 0 | 7 | -16 | nt
COc1ccc(C(=O)NCCN2C(=O)S/C(=C\c3cccnc3)C2=O)c(OC)c1OC | nt | i | -4 | -8 | -7 | -12 | -7 | -2
O=c1c2[nH]c3ccc(F)cc3c2ncn1CCN1CCN(Cc2ccccc2)CC1 | 16 | i | -5 | 0 | 6 | 3 | 4 | -2
Cc1cccn2c(=O)c3cc(C#N)c(=NC(=O)c4ccccc4)n(Cc4ccco4)c3nc12 | -14 | i | nt | nt | -4&-12 | 2&0 | -1 | 6
CCOc1cc(C)nc(N2CCN(C3CCCCC3)CC2)n1 | 10 | i | 3 | 2 | -6 | 2 | -17 | 10
COc1ccccc1CN(C)C(=O)c1sccc1-c1ccccc1 | 11 | i | 4 | -4 | -6 | -1 | -10 | 3
COc1cc(C)c(S(=O)(=O)n2nnc3ccccc32)cc1C | -17 | i | 2 | -7 | 2 | 0 | -12 | 0
CN(C)C(CNC(=O)CNC(=O)c1ccc(Br)cc1)c1ccccc1 (stereo not given) | -1 | i | 8 | 3 | 3 | 3 | -16 | -5
COc1ccc(CNC(=O)c2cc(-c3cc(C)ccc3O)n[nH]2)cc1 | 11 | i | 4 | -9 | 10 | 1 | nt | nt
Cc1sc2c(c1C)c(=O)nc1scc(CC(=O)O)n12 | -37 | i | 8 | 0 | -1 | -6 | -2 | -8
COc1ccc(-n2c(SC)nc(O)cc2=O)cc1 | 7 | i | 0 | -3 | 0 | 4 | 4 | -5
CCN(CC)CCNC(=O)CCn1c(=S)[nH]c2cc3c(cc2c1=O)OCO3 | -30 | i | -1 | 5 | -1 | 4 | -15 | -9
Cc1sc2ncn(CC(=O)NCc3ccccc3)c(=O)c2c1C | 13 | i | -1 | -8 | 1 | 2 | 4 | 12
O=c1cc(CSc2nnc(COc3ccccc3)n2-c2ccccc2)c2ccccc2[nH]1 | 36 | i | 12 | -2 | -5 | -7 | -6 | 0
O=C(CSc1nnc(CNC(=O)c2cccs2)o1)c1ccccc1 | -32 | i | 7 | -1 | 5 | 2 | -9 | -14
CCC(C)[C@H](NC(=O)NCCCOC(C)C)C(=O)OC (stereo not given in full) | 21 | i | -2 | -9 | -2 | -1 | -21 | -3
c1ccc(CSC2=NCCS2)cc1 | 21 | i | ? | 2 | 0 | 1 | nt | -8
Cc1c([N+](=O)[O-])cc(C(=O)N2CCOCC2)cc1[N+](=O)[O-] | 7 | i | 4 | 0 | -1 | 3 | -7 | -7
O=C(c1ccc(-c2ccccc2Cl)o1)N1CCC1 | -24 | nt | nt | nt | 2 | -4 | 0 | nt
COc1ccc(CCCc2nnc(SCC(=O)Nc3cc(C)c(C)cc3Br)o2)cc1 | 7 | i | -5 | -1 | 2 | -1 | 10 | 9
CCC(=O)Nc1ccc(NCc2cccs2)cc1 | 7 | i | 18 | -11 | 7 | 4 | -7 | 1
O=C(Nc1ccc(F)cc1F)NC1CCN(Cc2c(F)cccc2Cl)CC1 | 8 | i | -7 | -9 | 9 | -3 | -1 | -3
CC(=O)Oc1ccccc1C1OC(=O)c2ccccc2N1C(C)=O (stereo not given) | nt | i | -8 | -7 | -1 | 2 | -14 | -1
COc1ccc(-n2c(O)c(C=NC3CC3)c(=O)[nH]c2=O)cc1 | nt | i | 0 | 6 | 3 | 3 | -28 | -10
COc1cccc(OC)c1C(=O)N1CCN(Cc2ccccc2C)CC1 | nt | i | 8 | -1 | 3 | 3 | -1 | -16
O=C(O)CC1S/C(=N\N=C/c2ccccc2)N(c2ccc(O)cc2)C1=O (stereo not given) | nt | i | 0 | -8 | 4 | -2 | -11 | 4

# Some of the compounds tested; rates above refer to the full screens.
